From PubChem BioAssay
FGF22 binding: binders of recombinant human FGF22 by thermal shift; SYPRO orange fluorescence; percent of sucrose octasulfate shift, DMSO zero; 340,000 compounds, 1.5% hits; calls only at 9.99 µM;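 active = melting point raised past a set limit in the mean and every replicate; three in four hits are not shown here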
Target sequence (Q9HCT0 whole entry, looked up): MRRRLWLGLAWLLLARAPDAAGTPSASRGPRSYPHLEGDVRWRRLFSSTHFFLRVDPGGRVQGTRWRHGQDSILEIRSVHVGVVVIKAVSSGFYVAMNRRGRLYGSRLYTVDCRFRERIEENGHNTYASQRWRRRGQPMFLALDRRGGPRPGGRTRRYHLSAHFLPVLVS
Calls only; i = inactive; + = active, no number. Some of the compounds tested (hit frequency here may not be typical).

SMILES	FGF22 binding
CCCCNc1ccc2c(c1)OC[C@@H](Cc1ccccc1)NS2(=O)=O	i
CO[C@@H]1CN(C)C(=O)c2cc(NS(C)(=O)=O)ccc2OC[C@@H](C)N(S(=O)(=O)CC(F)(F)F)C[C@H]1C	i
O=C(C(=O)N1CCC(CNS(=O)(=O)c2ccc(F)cc2)CC1)c1cc2ccccc2o1	i
C[C@@H]1CN([C@H](C)CO)C(=O)Cc2cc(N(C)C)ccc2O[C@@H]1CN(C)S(=O)(=O)c1ccc(Cl)cc1	i
COc1ccc2c3c(n(C)c2c1)[C@@H](CO)N(S(C)(=O)=O)CC31CCN(C(=O)C2CC2)CC1	i
CCCNC(=O)N1[C@@H]2c3ccc(-c4ccc(OC)cc4)c(=O)n3C[C@H]1[C@H](CO)[C@H]2C(=O)NC1CCC1	i
C[C@H](CO)N1C[C@H](C)[C@H](CN(C)CC2CCCCC2)Oc2c(NC(=O)C3CCOCC3)cccc2C1=O	i
O=C(NCC[C@H]1CC[C@H](NC(=O)C2CCOCC2)[C@H](CO)O1)c1cc(Cl)cc(Cl)c1	i
COc1ccccc1CNC(=O)C[C@H]1C=C[C@H](NC(=O)CC2CC2)[C@@H](CO)O1	i
C[C@H]1CN([C@@H](C)CO)C(=O)Cc2cc(NC(=O)Cc3cn(C)c4ccccc34)ccc2O[C@H]1CN(C)Cc1ccc(C(=O)O)cc1	i
C[C@H](O)C#Cc1ccc2c(c1)O[C@@H](CN(C)C)[C@H](C)CN([C@@H](C)CO)S2(=O)=O	i
C[C@H]1CN([C@@H](C)CO)C(=O)c2cc(NS(=O)(=O)c3ccc(Cl)cc3)ccc2O[C@@H]1CN(C)C(=O)Nc1ccc2c(c1)OCO2	+
Cc1noc(C)c1NC(=O)Nc1ccc2c(c1)C(=O)N([C@H](C)CO)C[C@H](C)[C@H](CN(C)C(=O)c1ccccc1)OCCCC[C@@H](C)O2	i
CCCC#Cc1ccc([C@H]2[C@@H](C#N)N(C(=O)C3CC3)[C@H]2CO)cc1	i
Cc1noc(C)c1S(=O)(=O)N(C)C[C@@H]1Oc2c(NC(=O)C3CC3)cccc2C(=O)N([C@H](C)CO)C[C@@H]1C	i
CO[C@@H]1CN(C)C(=O)c2ccc(NS(C)(=O)=O)cc2OC[C@@H](C)N(Cc2cncnc2)C[C@@H]1C	i
C[C@@H]1CN([C@@H](C)CO)C(=O)c2cc(-c3ccccc3)cnc2O[C@H]1CN(C)C(=O)Nc1ccccc1	i
COc1ccc(CN(C)C[C@@H]2OCCCC[C@H](C)Oc3ccc(NS(=O)(=O)c4ccc(F)cc4)cc3C(=O)N([C@H](C)CO)C[C@@H]2C)cc1	i
C[C@H](CO)N1C[C@H](C)[C@H](CN(C)C(=O)Nc2ccc(F)cc2)Oc2c(NC(=O)Nc3ccccc3)cccc2C1=O	i
O=C(NC[C@H]1[C@@H](c2ccccc2)[C@H](CO)N1C(=O)Cc1ccncc1)C1CCC1	i
Cc1ccc(S(=O)(=O)Nc2ccc3c(c2)C(=O)N([C@H](C)CO)C[C@H](C)[C@H](CN(C)S(C)(=O)=O)OCCCC[C@H](C)O3)cc1	i
CO[C@H]1CN(C)C(=O)c2cc(NS(C)(=O)=O)ccc2OC[C@@H](C)N(Cc2nccs2)C[C@H]1C	i
COc1ccc(S(=O)(=O)Nc2ccc3c(c2)CC(=O)N([C@H](C)CO)C[C@@H](C)[C@@H](CN(C)Cc2ccccc2)O3)cc1	i
COc1cccc(NC(=O)C[C@@H]2CC[C@@H]3[C@@H](COc4ccc(NC(=O)C5CCOCC5)cc4C(=O)N3C)O2)c1	i
C[C@H]1CCCCO[C@H](CN(C)S(=O)(=O)c2cccs2)[C@@H](C)CN([C@@H](C)CO)C(=O)c2cc(NC(=O)Nc3ccc(C(F)(F)F)cc3)ccc2O1	i
CN1C(=O)c2cc(NC(=O)c3ccc(F)c(F)c3)ccc2OC[C@@H]2O[C@H](CC(=O)N[C@H]3CCN(Cc4ccccc4)C3)CC[C@@H]21	i
CN1[C@@H]2CN(C(=O)C3CCOCC3)c3ccccc3[C@@H]2[C@@H]1CO	i
C[C@@H]1CN([C@H](C)CO)S(=O)(=O)c2ccc(-c3ccccc3)cc2O[C@H]1CN(C)C(=O)c1ccc2c(c1)OCO2	i
C[C@H](CO)N1C[C@H](C)[C@H](CN(C)C(=O)Nc2cccc3ccccc23)Oc2c(NS(=O)(=O)c3ccccc3)cccc2C1=O	i
CCCNC(=O)Nc1ccc2c(c1)OC[C@H](C)N(CCC)C[C@@H](C)[C@H](OC)CN(C)C2=O	i
Cc1noc(C)c1NC(=O)Nc1ccc2c(c1)C(=O)N([C@@H](C)CO)C[C@H](C)[C@@H](CN(C)C(=O)C1CCCCC1)OCCCC[C@@H](C)O2	i
COc1ccc(NC(=O)Nc2ccc3c(c2)C(=O)N([C@H](C)CO)C[C@@H](C)[C@H](CN(C)S(=O)(=O)c2ccc(Cl)cc2)O3)cc1	i
C[C@H]1CN([C@@H](C)CO)C(=O)c2ccccc2-c2ccccc2CO[C@H]1CN(C)Cc1ccc(C(=O)O)cc1	i
Cc1noc(C)c1S(=O)(=O)Nc1ccc2c(c1)CC(=O)N([C@@H](C)CO)C[C@H](C)[C@@H](CN(C)C)O2	i
COCC(=O)N1[C@H](C#N)[C@@H](c2ccccc2-c2ccc(C)cc2)[C@@H]1CO	i
C[C@@H]1CN([C@H](C)CO)C(=O)Cc2cc(NC(=O)Cc3cn(C)c4ccccc34)ccc2O[C@@H]1CN(C)Cc1ccc(Oc2ccccc2)cc1	i
C[C@H]1CN([C@@H](C)CO)S(=O)(=O)c2ccc(C3=CCCCC3)cc2O[C@@H]1CN(C)C(=O)C1CCOCC1	i
CN1CCN(C(=O)[C@@H]2[C@@H](CO)[C@@H]3Cn4c(ccc(C5=CCCCC5)c4=O)[C@H]2N3S(C)(=O)=O)CC1	i
COCC#Cc1ccc([C@H]2[C@H](CO)N3CCCCN(S(=O)(=O)c4ccccc4F)C[C@@H]23)cc1	i
Cc1noc(C)c1NC(=O)Nc1ccc2c(c1)C(=O)N([C@H](C)CO)C[C@H](C)[C@@H](CN(C)C(=O)Nc1ccc3c(c1)OCO3)OCCCC[C@@H](C)O2	i
CCCNC(=O)N1CC2(CCN(C(=O)C3CCCCC3)CC2)c2c([nH]c3cc(OC)ccc23)[C@H]1CO	i
CC(=O)Nc1ccc2c(c1)C(=O)N(C)[C@H]1CC[C@H](CC(=O)NCc3ccc4c(c3)OCO4)O[C@@H]1CO2	i
COCC(=O)N(C)C[C@@H]1Oc2ncc(C#Cc3ccccc3OC)cc2C(=O)N([C@H](C)CO)C[C@@H]1C	i
CC(C)C#Cc1ccc2c(c1)O[C@H](CN(C)C(=O)C1CC1)[C@H](C)CN([C@@H](C)CO)S2(=O)=O	i
CCC(=O)Nc1ccc2c(c1)C(=O)N(C)C[C@H](OC)[C@@H](C)CN(Cc1ccccc1OC)[C@@H](C)CO2	i

Shown as comma-separated lines: part of the list above.
SMILES,FGF22 binding
COc1ccc(NC(=O)Nc2ccc3c(c2)C(=O)N([C@H](C)CO)C[C@@H](C)[C@H](CN(C)S(=O)(=O)c2ccc(Cl)cc2)O3)cc1,i
COCC#Cc1ccc([C@H]2[C@H](CO)N3CCCCN(S(=O)(=O)c4ccccc4F)C[C@@H]23)cc1,i
CC(C)C#Cc1ccc2c(c1)O[C@H](CN(C)C(=O)C1CC1)[C@H](C)CN([C@@H](C)CO)S2(=O)=O,i
C[C@H]1CN([C@@H](C)CO)C(=O)c2ccccc2-c2ccccc2CO[C@H]1CN(C)Cc1ccc(C(=O)O)cc1,i

Additional structures
SMILES	FGF22 binding
CCS(=O)(=O)Nc1ccc2c(c1)C(=O)N(C)[C@@H]1CC[C@@H](CC(=O)N3CCN(C)CC3)O[C@H]1CO2	i
Cc1noc(C)c1NC(=O)NCC[C@@H]1CC[C@@H](NC(=O)Cc2cccnc2)[C@H](CO)O1	i
CN1CCN(C(=O)C[C@H]2CC[C@H]3[C@@H](COC[C@H](O)CN3C(=O)c3ccccc3F)O2)CC1	i
C[C@@H]1CCCCO[C@H](CN(C)C(=O)CCC(F)(F)F)[C@H](C)CN([C@@H](C)CO)C(=O)c2cc(NC(=O)NC3CCCCC3)ccc2O1	i
COc1ccc(NC(=O)N(C)C[C@@H]2Oc3cc(-c4ccc(C)cc4)ccc3S(=O)(=O)N([C@H](C)CO)C[C@H]2C)cc1	i
COc1ccccc1NC(=O)N(C)C[C@@H]1Oc2ncc(C#CCC(C)C)cc2C(=O)N([C@@H](C)CO)C[C@H]1C	i
Cc1noc(C)c1S(=O)(=O)N(C)C[C@H]1Oc2ccc(NS(=O)(=O)c3cn(C)cn3)cc2CC(=O)N([C@@H](C)CO)C[C@H]1C	i
CN1CCN(C(=O)C[C@@H]2CC[C@@H]3[C@H](COC[C@H](O)CN3CC3CCCCC3)O2)CC1	i
CO[C@@H](C(=O)N(C)C[C@H]1OCc2ccccc2-c2c(n(C)c3ccccc23)C(=O)N([C@H](C)CO)C[C@@H]1C)c1ccccc1	i
COc1ccc(CN(C)C[C@@H]2Oc3ccc(NC(=O)Nc4ccc(C(F)(F)F)cc4)cc3CC(=O)N([C@H](C)CO)C[C@H]2C)cc1	i
COc1ccc(S(=O)(=O)N(C)C[C@@H]2Oc3ccc(NS(C)(=O)=O)cc3CC(=O)N([C@H](C)CO)C[C@@H]2C)cc1	i
COc1ccc(NC(=O)N(C)C[C@H]2OCCCC[C@H](C)Oc3ccc(NC(=O)CCCN(C)C)cc3C(=O)N([C@@H](C)CO)C[C@@H]2C)cc1	i
C[C@H]1CCCCO[C@H](CN(C)C(=O)Nc2ccccc2)[C@@H](C)CN([C@@H](C)CO)C(=O)c2cc(NS(=O)(=O)c3cccs3)ccc2O1	i
C[C@@H](O)C#Cc1cnc2c(c1)C(=O)N([C@@H](C)CO)C[C@H](C)[C@@H](CN(C)Cc1cccc(F)c1)O2	i
C[C@@H]1CCCCO[C@@H](CN(C)C(=O)Nc2ccc(F)cc2)[C@H](C)CN([C@@H](C)CO)C(=O)c2cc(NS(C)(=O)=O)ccc2O1	i

Quoted at random: five entries already listed, in no set order.
SMILES	FGF22 binding
COc1ccc(NC(=O)N(C)C[C@H]2OCCCC[C@H](C)Oc3ccc(NC(=O)CCCN(C)C)cc3C(=O)N([C@@H](C)CO)C[C@@H]2C)cc1	i
COc1ccc(NC(=O)N(C)C[C@@H]2Oc3cc(-c4ccc(C)cc4)ccc3S(=O)(=O)N([C@H](C)CO)C[C@H]2C)cc1	i
CO[C@@H](C(=O)N(C)C[C@H]1OCc2ccccc2-c2c(n(C)c3ccccc23)C(=O)N([C@H](C)CO)C[C@@H]1C)c1ccccc1	i
C[C@@H](O)C#Cc1cnc2c(c1)C(=O)N([C@@H](C)CO)C[C@H](C)[C@@H](CN(C)Cc1cccc(F)c1)O2	i
CN1CCN(C(=O)C[C@@H]2CC[C@@H]3[C@H](COC[C@H](O)CN3CC3CCCCC3)O2)CC1	i

(cont.)
SMILES	FGF22 binding
COCC(=O)N(C)C[C@H]1Oc2cc(C#CCC(C)C)ccc2S(=O)(=O)N([C@@H](C)CO)C[C@H]1C	i
C[C@@H]1CCCCO[C@@H](CN(C)C(=O)c2ccncc2)[C@@H](C)CN([C@H](C)CO)C(=O)c2cc(NC(=O)CCCCCC(=O)Nc3ccccc3N)ccc2O1	i
C[C@H](CO)N1C[C@H](C)[C@H](CN(C)C(=O)C2CC2)Oc2cc(Br)ccc2S1(=O)=O	i
C[C@@H]1CN([C@H](C)CO)S(=O)(=O)c2ccc(-c3cncnc3)cc2O[C@H]1CN(C)Cc1ccccc1	i
COc1cccc(C(=O)N2CCC[C@@H]2C(=O)N2CCC[C@H]2C(=O)NCc2ccccc2)c1	i
COc1ccc(C#Cc2cnc3c(c2)C(=O)N([C@H](C)CO)C[C@H](C)[C@H](CN(C)C(=O)CC2CC2)O3)cc1	i
COc1ccccc1-c1ccc2n(c1=O)C[C@@H]1[C@@H](CO)[C@H](C(=O)N3CCCCC3)N(C)[C@H]21	i
Cc1noc(C)c1NC(=O)Nc1ccc2c(c1)C(=O)N([C@H](C)CO)C[C@@H](C)[C@H](CN(C)Cc1ccccc1)O2	i
CC(C)NC(=O)N(C)C[C@H]1OCCCC[C@@H](C)Oc2ccc(NS(=O)(=O)c3cn(C)cn3)cc2C(=O)N([C@H](C)CO)C[C@@H]1C	i
O=C(C[C@@H]1CC[C@@H]2[C@H](COC[C@H](O)CN2S(=O)(=O)c2cccc(Cl)c2)O1)NC1Cc2ccccc2C1	i
CCC(=O)N1CC2(C1)[C@H](c1ccccc1)[C@@H](CO)N2C(=O)NC(C)C	i
CC(C)CC#Cc1ccc2c(c1)O[C@@H](CN(C)Cc1ccccc1F)[C@H](C)CN([C@H](C)CO)S2(=O)=O	i
O=S(=O)(c1ccccc1)N1CCCCN2[C@H](CO)[C@H](c3ccc(C#Cc4ccccc4)cc3)[C@@H]2C1	i
COc1ccc(NC(=O)Nc2ccc3c(c2)[C@@H]2C[C@@H](CC(=O)N4CCCCC4)O[C@@H](CO)[C@@H]2O3)cc1	i
CN1C(=O)c2cc(NC(=O)c3cscn3)ccc2OC[C@H]2O[C@H](CC(=O)NCc3ccc(Cl)c(Cl)c3)CC[C@H]21	i
COc1ccc(NC(=O)Nc2cccc3c2O[C@@H](CN(C)S(=O)(=O)c2cccs2)[C@H](C)CN([C@H](C)CO)C3=O)cc1	i
C[C@H](NC(=O)C[C@H]1CC[C@H](NC(=O)C2CC2)[C@H](CO)O1)c1ccccc1	i
O=C(C[C@@H]1CC[C@H]2[C@@H](COC[C@H](O)CN2C(=O)Nc2ccc(F)cc2)O1)NCCCN1CCOCC1	i
CCCNC(=O)[C@@H]1[C@@H](CO)[C@@H]2Cn3c(cccc3=O)[C@H]1N2C(=O)C1CCCC1	i
C[C@@H]1CN([C@@H](C)CO)C(=O)c2cc(Br)cnc2O[C@H]1CN(C)Cc1ccccn1	i
C[C@H](O)C#Cc1ccc([C@@H]2[C@@H](CO)N3CCCCN(C(=O)Nc4ccccc4)C[C@@H]23)cc1	i
CO[C@H]1CC[C@H]2CCOc3ccc(C#N)cc3C(=O)N(C)[C@@H](C)C(=O)N(C)C[C@@H]1O2	i
